Screening data as filed in PubChem BioAssay.
HCMV UL50-53 inh: inhibitors of HCMV UL50-UL53 nuclear egress complex interaction; HTRF UL50-UL53 interaction, normalized percent inhibition; inhibition, % (no concentration beside the values); 190,000 tested, 0.15% active;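 active = both replicates at 50% or more, plus weaker picks with an unusually low signal ratio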;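 also: stock transfer was 100 nL into about 20 µL; 0% = negative control wells and 100% = wells with untagged competitor protein; inactives centre near -12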
GIV-Gai inh: blocks GIV peptide binding to rat Galpha-i3; percent of control (FP), % (no concentration beside the values); P08753; 210,000 tested, 0.42% active; AID 1224905; Galpha-i3/FITC-GIV peptide fluorescence polarization, 90 min; stronger effect = lower value; scaled: aluminum fluoride 0%, vehicle 100%;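 active = replicate mean at 85% of control or lower, very high polarization wells dropped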;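 also: wells of about 15 µL received 100 nL stock; the first replicate is given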
Target sequence (P08753 whole entry, looked up): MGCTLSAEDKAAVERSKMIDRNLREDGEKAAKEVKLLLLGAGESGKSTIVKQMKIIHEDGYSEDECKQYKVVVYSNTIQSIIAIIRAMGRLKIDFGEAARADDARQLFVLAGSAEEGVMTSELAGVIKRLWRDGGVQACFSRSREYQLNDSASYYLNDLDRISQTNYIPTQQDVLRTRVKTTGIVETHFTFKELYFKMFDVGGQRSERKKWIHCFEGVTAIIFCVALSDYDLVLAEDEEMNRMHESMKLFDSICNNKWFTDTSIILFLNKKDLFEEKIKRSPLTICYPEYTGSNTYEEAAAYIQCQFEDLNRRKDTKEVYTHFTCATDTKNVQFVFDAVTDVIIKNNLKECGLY
Sa growth 42C: S. aureus growth inhibition; S. aureus RN4220 growth, OD600, 20 h, 42 °C; stronger effect = lower value; relative growth, % (no concentration beside the values); 170,000 tested, 0.53% active;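 active = growth at 42 °C up to 50% and 20 or more points under that at 30 °C, or under 10% at both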;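 also: 300 nL library stock went into each well; scaled to the means of positive and negative controls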
Sa growth 42C second temp: second read-out of Sa growth 42C, no call of its own (marks repeat the call); relative growth, %; measured here: growth at 30 °C;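 optical density after 20 h as mean of two plates; 100% = untreated growth and lower means inhibition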
Starred values were filed as active, the others as inactive; · = no result given; & = joins results of further samples.

Every second line gives: HCMV UL50-53 inh, GIV-Gai inh, Sa growth 42C, Sa growth 42C second temp
OC1(C(F)(F)F)CC(c2cccs2)=NO1 (configuration not stated)
 : -11.6, 97.8, 91.4, 80.5
COc1cc(N)ccc1-n1c(C)ccc1C
 : -5.7, 113.9, 62.7, 74.7
CCOC(=O)c1[nH]c(C)c(CCC(=O)Nc2c(C)cc(C)cc2C)c1C
 : ·, 107.9, 98.4, 102.2
COC(=O)c1sccc1NC(=O)c1cc2c(COC(=O)C(C)C)cnc(C)c2oc1=O
 : -27.5, 117.8, ·, ·
Cc1ccc(Cl)cc1NC(=O)NCC(c1ccccc1)c1cn(C)c2ccccc12 (configuration not stated)
 : -10.4, 106.8, ·, ·
COc1ccc(C2=C(C)C(N3CCC(C(=O)N4CCc5ccccc5C4)CC3)=NS2(=O)=O)cc1
 : -47.2, 98.5, ·, ·
S=C(NCCc1ccc(Cl)cc1)NCc1ccco1
 : -0.5, 111.2, 104.8, 94.1
Cc1cc(NC(=O)NC(=O)c2ccc(F)cc2)n[nH]1
 : -7.4, ·, 107.0, 81.8
CCOC(=O)N1CCC(NC(=O)c2snnc2C)CC1
 : -2.5, 99.8, 88.4, 94.2
COc1ccc(CCNc2ncnc3c2c(-c2ccccc2)cn3-c2cccc(Cl)c2)cc1OC
 : ·, 107.6, 97.9, 90.0
COc1ccc(C2CC(=O)C3=C(C2)Nc2onc(C)c2C3c2cccc(C)c2)cc1 (configuration not stated)
 : -11.5, 105.4, ·, ·
CNC(=O)CSc1c(-c2cccs2)[nH]c2ccccc12
 : -26.4, ·, 60.0, 45.8
Fc1ccc(-c2nc3n(n2)C2(CCCCC2)[C@@H]2CCCC[C@@H]2N3)cc1
 : -23.1, 96.6, ·, ·
Cc1cc(=O)[nH]c(-n2nc(C)cc2NC(=O)CSCc2ccccc2)n1
 : -7.6, 100.5, ·, ·
Nc1nnc(CSc2cccc3cccnc23)o1
 : -23.5, ·, 83.2, 82.7
CCc1cccc(NC(=O)CCS(=O)(=O)c2cccc3nonc23)c1
 : -38.5, 102.1, 110.8, 81.7
Cc1cc(NC2CCCC2)n2nc(-c3ccc(Cl)cc3)c(C)c2n1
 : -25.2, 107.9, ·, ·
Cc1nn(-c2ccccc2)c2c1N(CCCC(=O)NCc1ccccn1)C(=O)CS2
 : -23.8, 105.3, ·, ·
O=C1CN(C(=O)COc2ccc(Cl)cc2Cl)C(c2ccccc2)c2cc(F)ccc2N1 (configuration not stated)
 : 0.8, 102.4, 93.8, 58.2
O=C(CCN1C(=O)c2ccccc2S1(=O)=O)Nc1ccc2c3c(cccc13)CC2
 : ·, 103.9, 115.0, 97.0
OCCn1c(SCCOc2ccccc2)nc2ccccc21
 : -7.1, 104.3, 105.2, 84.3
c1ccc(-c2cn(-c3ccccc3)c3ncnc(NC4CC4)c23)cc1
 : -30.4, 98.2, ·, ·
CN(C)c1ccc(N=Cc2nc(-c3ccccc3)oc2OC(=O)c2ccccc2)cc1
 : -30.3, ·, 84.9, 88.1
CCN(C(=O)c1cn(CC)c(=O)c2cc(OC)c(OC)cc12)c1cc(C)ccc1C
 : -14.7, 103.5, 104.1, 86.1
COc1ccc(-c2noc(CC(=O)N3CCC(C)CC3)n2)cc1
 : ·, 115.7, 104.2, 91.7
O=C1CN(C(=O)c2ccc(S(=O)(=O)N3CCCCC3)cc2)C(c2ccc(F)cc2)c2cc(F)ccc2N1 (configuration not stated)
 : -28.2, 104.9, 84.3, 97.5
CCOC(=O)C1=C(CN2CCCc3ccccc32)NC(=O)NC1c1ccccc1 (configuration not stated)
 : 1.1, 109.4, 112.8, 97.3
O=C(C1CCN(S(=O)(=O)c2ccc(Br)s2)CC1)N1CCN(c2ccccc2)CC1
 : 50.5, 102.8, 106.6, 85.8
CSc1nc(C)cc(ON=C(C)C)n1
 : -0.5, 103.4, 95.7, 94.3
O/N=C\c1ccccc1Oc1ccc(Cl)c(F)c1
 : -14.0, 103.4, ·, ·
O=C(c1ccccc1)c1cc2ccccc2oc1=O
 : ·, 109.7, 113.7, 81.3
CC1CCCC(NC(=O)c2ccccc2)C1C (configuration not stated)
 : -8.1, ·, 99.1, 91.6
COc1cccc2c1Oc1nc(-c3ccccc3)nc(SC(F)F)c1C2
 : 6.9, 110.2, 97.8, 92.8
O=C(O)c1cc(-c2cccc(O)c2)c2c(-c3ccccc3)[nH]nc2n1
 : ·, 97.0, 90.3, 93.1
CCC1(C)C(C#N)(C#N)C1(C#N)C#N
 : 5.4, 99.4, 69.3, 0.0
CN(C)C(Cc1cccc(S(=O)(=O)N2CCOCC2)c1)C(=O)c1ccccc1 (configuration not stated)
 : -2.9, ·, 99.1, 98.3
Brc1ccc(-c2cnc(/C=C/C=C/N3CCOCC3)s2)cc1
 : -4.8, 133.0, 122.9, 88.9
CN(C)c1c[nH]c(=O)[nH]c1=O
 : -29.8, 106.2, 95.8, 87.2
O=Nc1c(-c2c(O)[nH]c3ccccc23)[nH]c2ccccc12
 : -28.0&-17.8&-45.7&-49.0, 105.4, ·, ·
Brc1ccccc1[C@@H]1Nc2ccccc2[C@@H]2C=CC[C@@H]21
 : ·, 108.2, 108.2, 92.0
Cc1ccc2nc(NCCC(=O)O)nc(-c3ccccc3)c2c1
 : ·, 105.7, 102.9, 82.9
COc1ccc(CN=C(C)C2CCOC2=O)cc1 (configuration not stated)
 : -7.3, 100.4, 91.6, 84.1
COCCCn1c(SCc2ccccc2F)nc2c(sc3ccccc32)c1=O
 : ·, 106.6, 104.1, 93.4
CCOc1ccc(-c2cc(CCCC(=O)NCCc3cc(OC)c(OC)c(OC)c3)no2)cc1
 : -35.9, 99.5, 100.4, 74.1
Cc1cc(Nc2ccc(F)cc2)nc(SCc2c(Cl)cccc2Cl)n1
 : 14.1, 102.2, 98.5, 104.4
CCc1cccc(NC(=O)Nc2cn(C)c(=O)c3ccccc23)c1
 : ·, 100.5, 104.2, 86.0
O=C(Nc1ccccc1)OCc1cncs1
 : -18.6, 104.7, ·, ·
CN(C)S(=O)(=O)c1cccc(CSc2nnc(C(F)(F)F)n2C)c1
 : -0.3, ·, 91.6, 102.4
COc1cccc(N2CCN(C(=O)C3CCCN(S(=O)(=O)c4ccc(Br)s4)C3)CC2)c1 (configuration not stated)
 : -5.4, 104.1, 97.0, 81.8
COc1ccc(C2CC(=O)C3=C(C2)NC(C)=C(C#N)C3c2cc(OC)c(OC)cc2Br)cc1 (configuration not stated)
 : -1.3, 102.1, ·, ·
CCN(CC)c1cccc(C(=O)O)n1
 : -13.4, ·, 105.7, 91.7
OCc1cccn1-c1ccc(I)cc1
 : 7.0, 108.8, 103.5, 106.8
Cc1ccc(Cl)cc1NC(=O)c1ccc(NC(=O)N2CCSc3ncccc32)cc1
 : 2.7, 103.1&100.0, 98.3, 88.9
O=S(=O)(c1ccc2c(c1)OCO2)N1CCOCC1
 : 12.1, 101.9, 91.6, 99.8
Cc1ccc(C(=O)NC(C)C(C)(C)C)o1 (configuration not stated)
 : -4.3, 102.9, 81.8, 103.2
CC1(C)CC(=O)c2sc(NC(=O)C3CC3)nc2C1
 : -18.5, 110.2, ·, ·
COc1ccc(NC(=O)CN2CCN(Cc3ccc(F)cc3Cl)S2(=O)=O)cc1Cl
 : -24.8, 99.3, ·, ·
O=C(CNC(=O)c1cccs1)NC1CCCC1
 : -2.0, 103.1, 98.1, 85.5
S=c1nc(-c2ccccc2)[nH]n1CN1CCc2ccccc2C1
 : -20.5, ·, 71.8, 55.2
Nc1nc(CSCC(=O)NCc2ccco2)nc(Nc2ccccc2)n1
 : -8.7, ·, 101.3, 99.2

More structures:
Every second line gives: HCMV UL50-53 inh, GIV-Gai inh, Sa growth 42C, Sa growth 42C second temp
Cc1cc(C(=O)Cn2cnc3sccc3c2=O)c(C)n1CCc1ccc(Cl)cc1
 : -24.5, ·, 80.9, 96.3
CCOc1ccccc1C1CC(=O)NC2=C1C(=O)CCC2 (configuration not stated)
 : -0.6, 112.1, 88.7, 96.3
COc1ccccc1C(=O)Oc1c(Sc2ccccc2)c(C)nn1C(C)(C)C
 : 2.1, 101.9, 114.4, 94.3
O=C(Cc1ccsc1)OCC(=O)c1ccccc1
 : -11.4, ·, 84.4, 85.8
CCc1ccc(-c2nc(CN3CCC(C(=O)NC(C)C)CC3)c(C)o2)cc1
 : -0.3, 96.1, 133.4, 94.0
CC1(C)Cc2c(c(=S)nc(-c3ccccc3)n2CCO)CO1
 : -4.8, 103.8, 94.3, 93.8
CC(CNC(=O)CN1C(=O)COc2ccc(S(=O)(=O)N3CCCCCC3)cc21)c1ccccc1 (configuration not stated)
 : ·, 102.9, 103.1, 81.1
COc1cccc(NS(=O)(=O)c2ccc3c(c2)[C@H]2C=CC[C@H]2[C@@H](c2ccccc2Cl)N3)c1
 : 5.3, 134.3, 107.9, 101.7
COC(=O)CCn1cnc(-c2ccccc2)c1-c1ccccc1
 : ·, 104.6, 120.3, 78.9
COc1ccccc1C(=O)NC(=O)CSc1nncn1C(C)C
 : -18.6, ·, 85.0, 92.0
Cc1cccc(NC(c2ccsc2)c2c(NC(=O)c3ccccc3)sc3c2CCCC3)n1 (configuration not stated)
 : -29.7, 103.4, ·, ·
CC(=O)c1ccc(N2CCN(c3nc4c(S(=O)(=O)c5ccc(C)c(C)c5)nnn4c4ccc(Cl)cc34)CC2)cc1
 : -30.6, 98.8, 104.7, 83.5
CC1CCc2c(sc(NC(=O)CCN3CCOCC3)c2C#N)C1 (configuration not stated)
 : -16.4, ·, 95.5, 86.8
NC(=O)c1sccc1NC(=O)CSCc1ccc(Cl)cc1
 : 12.0, 105.6, 102.7, 96.0
Cc1ccc2c(=O)c(C(=O)c3cccc(Cl)c3)cn(CC(=O)NCc3ccccc3)c2n1
 : ·, 103.8, 100.2, 88.2
CSc1cccc(C(=O)Nc2cc(C)on2)c1
 : -25.8, 102.8, 66.6, 50.5
Cc1cc(-c2ccc(C(C)C)c(S(=O)(=O)N3CCN(c4ccccc4F)CC3)c2)on1
 : -21.4, 104.8, 98.1, 90.4
O=C1N=c2ccccc2=C1c1[nH]c(=S)n(-c2ccccc2)c1O
 : -17.0, ·, 93.7, 85.6
Cc1nn(-c2ccccc2)c2c1CC1(C(=O)c3ccccc3C1=O)C1CCCN21 (configuration not stated)
 : -15.4, ·, 91.7, 95.5
COc1cccc(CN2CCc3nc(SCC(=O)Nc4ccccc4)[nH]c(=O)c3C2)c1
 : -14.7, 103.7, 89.7, 88.5
COc1ccc(N2C(=O)NC(NS(=O)(=O)c3ccc(Cl)cc3)(C(F)(F)F)C2=O)cc1 (configuration not stated)
 : -2.1, 112.6, 96.5, 101.4
O=C(NCc1nc(-c2ccc(C(F)(F)F)cc2)no1)c1ccccc1
 : -18.3, 96.6, 80.7, 83.0
COc1ccccc1OC(=O)Nc1ccccc1
 : -7.4, 101.0, 106.7, 88.8
Nc1nc(-c2ccc(Cl)cc2)nn1C(=O)Cc1ccc(Cl)cc1
 : -18.9, 99.8, ·, ·
CCCCN(C)C(=O)c1ccc2c(c1)N(Cc1ccc(F)cc1)C(=O)c1ccccc1S2(=O)=O
 : 21.3, 110.2, 120.7, 94.2
CCc1cccc(C)c1NC(=O)c1cc2ccccc2o1
 : 16.0, 100.5, 108.7, 98.2
O=C(Nc1c2c(nn1-c1ccc([N+](=O)[O-])cc1)CSC2)c1cc(Br)ccc1Cl
 : -27.7, 101.6, ·, ·
CC(C)CCNC(=O)CCCCn1c(=O)c2ccccc2n(CC(=O)Nc2ccc(F)c(Cl)c2)c1=O
 : -17.4, 105.7, ·, ·
CN(C)CCNC(=O)c1ccc(/C=N/O)nc1
 : -19.6, 96.3, 89.0, 97.0
CCOC(=O)c1s/c(=N\C(=S)NC(=O)CN2C(=O)CCC2=O)n(C)c1C
 : -34.2, 103.2, 108.8, 89.6
CC(C)(C)NC(=S)Nc1cccc(Cl)c1
 : -8.2, 108.9, 126.2, 93.4
O=C(CSc1nc2ccc(NC(=O)c3ccccc3F)cc2s1)NC1CC1
 : -10.2, ·, 102.0, 83.0
CCc1c(C)nc2ncnn2c1Nc1ccc(C)c(Cl)c1
 : -22.7, 100.7, ·, ·
Cc1cc(C(=O)Nc2ccc(F)cc2F)no1
 : -25.7, 101.1, ·, ·
Cc1nn(C(=O)c2ccc(Br)cc2)c(C)c1S(=O)(=O)N1CCOCC1
 : ·, 103.8, 91.6, 89.5
CC(=O)Nc1c(C)nn(-c2ccccc2)c1N1CCC(C(=O)Nc2cccc(C(F)(F)F)c2)CC1
 : ·, 102.6, 85.6, 82.6
COc1ccccc1C(=O)Nc1nnc(SCc2cc(=O)n3ccc(C)cc3n2)s1
 : ·, 104.3, 89.2, 85.1
O=c1c2sc3ccccc3c2n(Cc2cccc(C(F)(F)F)c2)c(=O)n1Cc1ccc(F)cc1
 : 15.4, 99.7, 96.3, 94.1
COc1ccc(-c2c(C(F)(F)F)oc3c(CN4CCCC4)c(O)ccc3c2=O)cc1OC
 : -40.9, 101.9, ·, ·
O=C(NCCNCC(O)COc1ccc(O)cc1)N1CCOCC1 (configuration not stated)
 : -27.5&-1.6&-16.9, 104.1, 82.3, 82.4
C=CCC(=O)c1sc(NC)c(C#N)c1N
 : -8.3, ·, 118.1, 87.7

Reprinted from above, 3 compounds:
Every second line gives: HCMV UL50-53 inh, GIV-Gai inh, Sa growth 42C, Sa growth 42C second temp
OC1(C(F)(F)F)CC(c2cccs2)=NO1 (configuration not stated)
 : -11.6, 97.8, 91.4, 80.5
COc1cc(N)ccc1-n1c(C)ccc1C
 : -5.7, 113.9, 62.7, 74.7
CCOC(=O)c1[nH]c(C)c(CCC(=O)Nc2c(C)cc(C)cc2C)c1C
 : ·, 107.9, 98.4, 102.2
